Screening data from PubChem.
FEN1 inhibitor = inhibitors of human flap endonuclease 1. P39748. Recombinant FEN1 flap cleavage, fluorescence, 15 min. Potency, µM (top dose mostly 114 µM), inactives show at the top dose activity change, negative = inhibition, most hits filed as inhibitors. hit rate 0.35% among 390,000. AID 588795; note: nearly all actives have a fitted effect of over 65% in size
Target sequence (P39748 whole entry, looked up): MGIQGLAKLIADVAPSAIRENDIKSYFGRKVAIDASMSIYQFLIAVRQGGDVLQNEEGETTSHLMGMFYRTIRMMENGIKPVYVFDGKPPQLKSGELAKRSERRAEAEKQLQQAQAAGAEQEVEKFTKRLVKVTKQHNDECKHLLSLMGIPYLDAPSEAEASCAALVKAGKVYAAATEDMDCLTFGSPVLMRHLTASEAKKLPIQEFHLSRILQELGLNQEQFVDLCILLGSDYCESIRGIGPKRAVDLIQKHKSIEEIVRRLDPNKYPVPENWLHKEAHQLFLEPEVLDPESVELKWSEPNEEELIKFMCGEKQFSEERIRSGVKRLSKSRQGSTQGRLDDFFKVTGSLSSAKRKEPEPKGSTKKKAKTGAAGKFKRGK
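FEN1 at 10 nM, compound pretreatment for 15 min (room temperature), 50 nM final substrate to initiate; endpoint reads at 0 and 15 min; DMSO-only plates used as vehicle background.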
N370S GC = inhibits or activates N370S mutant glucocerebrosidase | Potency, µM (titrated, usually from 59.4 µM), for the others: at the highest dose activity change, negative = inhibition, hits mostly inhibitors | N370S GC spleen homogenate, 4MU-glucoside fluorescence | hit rate 0.092% among 330,000;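 note: 0% = full enzyme activity and -100% = no enzyme basal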
Starred values were filed as active, the others as inactive; ? = inconclusive; / = not tested or not shown; [ ] = another dose, or the depositor's remark. Calls come from the whole dose curve; as a rule, active = well fitted curve in the direction sought with a large enough effect; inconclusive = small, poorly fitted or top-dose-only effect, or another doubt; inactive = no such curve, though single readings can be large; an effect the other way counts as inactive or inconclusive. Unless noted, % is set by controls: 0 for no effect and ±100 for the full control effect; potency is the fitted concentration of half-maximal effect.

SMILES	FEN1 inhibitor	N370S GC
CC(C)Oc1ccc(CNC(=S)N/N=C/c2ccc([N+](=O)[O-])cc2)cc1	-0.5%	-9.2%
O=C(CCCN1C(=O)C2CC=CCC2C1=O)Nc1cccc(F)c1 (stereo not given)	4.8%	1.5%
C/C(=N/NC(=O)c1cccc(N2CCCC2=O)c1)c1ccncc1	-8.1%	-10.8%
CCNc1nc(Cl)nc(N(NC(C)=O)C(C)CC)n1 (stereo not given)	5.7%	-4.3%[12.8 µM]
CC[C@@H](CCC=C(C)C)C(=O)N(Cc1ccccc1)c1ccccc1	3.3%	/
Cc1nc2ccc(NC(=O)N3CCC(c4ccccc4)C3)cc2nc1C (stereo not given)	6.3%	3.4%
COc1ccc(CNC(=O)[C@H](Cc2ccccc2)NC(=O)C2CCNCC2)cc1	15.6%	-3.2%
CCc1nn(C(C)C(=O)N(C)Cc2ccccc2)c(=O)c2cc3occc3n12 (stereo not given)	2.5%	2.1%
Cc1ccc(NC(=O)OCCN2CCN(Cc3ccccc3)CCC2=O)cc1	-5.6%	?
CCOC(=O)c1c(C2CCN(C(=O)OCC)CC2)nc2ccccn12	-2.3%	13.5%
COC(=O)[C@]1(Cc2ccccc2)N[C@H](CN(C)C(=O)c2ccccc2)[C@@H]2C(=O)N(Cc3ccccc3)C(=O)[C@@H]21	4.0%	/
CSCCC(NC(=O)c1cccc(C)c1)C(=O)OCC(=O)NC(=O)c1cccn1C (stereo not given)	4.8%	-4.1%
CN1C(=O)C(C)(C)c2cc(S(=O)(=O)NCC3CCC(C(=O)NCc4ccc(F)cc4)CC3)ccc21 (stereo not given)	15.5%	-10.8%
Cc1ccccc1N1C(=O)CC(Sc2nnc(-c3ccccc3)o2)C1=O (stereo not given)	-6.3%	6.6%
O=[N+]([O-])c1cc(C(F)(F)F)ccc1NC1CCN(Cc2ccccc2)CC1	-5.3%	-7.4%
COc1ccc(OC)c(Nc2nnc(C)c(=O)[nH]2)c1	2.2%	1.4%
CCOC(=O)C1=NN(C(=O)Cc2ccccc2)C(O)(C(C)(C)C)C1 (stereo not given)	-1.3%	3.5%
O=C(CN1C(=O)c2ccccc2C1=O)NCC1COc2ccccc2O1 (stereo not given)	8.6%	1.4%
O=C(COc1ccc(Cl)cc1)N1CCCCCCC1	-8.0%	3.4%
Cc1cc2oc(=O)cc(CN(C)Cc3ccc(OC(F)F)cc3)c2cc1Cl	-0.6%	25.5%
Cc1ccc(NC(=O)CN(C)C(=O)CCOc2cccc(C)c2)cc1	-1.8%	9.3%
CCOC(=O)N1CCN(C(=O)C2CCN(S(=O)(=O)c3ccccc3)CC2)CC1	-14.2%	4.9%
COc1cc(C2C3=C(CCCC3=O)Nc3[nH]n(-c4ccccc4)c(=O)c32)ccc1O (stereo not given)	0.2%	-11.1%
CCOC(=O)c1c(C)[nH]c(C(=O)COC(=O)C2CC2)c1C	-11.4%	-5.8%
COc1cccc2c1Oc1nc(-c3ccccc3)nc(SCC(=O)Nc3ccccc3)c1C2	14.3%	/
COc1cc(OC)cc(C(=O)Nc2nnc(-c3cccnc3)o2)c1	-0.3%	-3.2%
Cc1c(C=O)c2ccccc2n1CC(=O)NCc1ccccc1	-4.1%	2.1%
CCO[C@@H]1OC(C(=O)N2CCN(Cc3ccc4c(c3)OCO4)CC2)=C[C@H](c2ccc3c(c2)OCO3)[C@H]1CCCO	-8.8%	-5.9%
O=S(=O)(c1ccccc1Br)N1CCC(O)(c2cccnc2)CC1	-1.9%	-8.7%
COc1cccc(CN2CCNC(=O)C2CC(=O)N(C)CC2CCOCC2)c1 (stereo not given)	-2.4%	-8.7%
CC12CCC(C(=O)NCCCn3ccnc3)(OC1=O)C2(C)C (stereo not given)	1.5%	-12.9%
CCN(CC)S(=O)(=O)c1cccc(NC(=O)COC(=O)/C=C/c2ccco2)c1	4.2%	-18.8%
CCN1CCCC1CNC(=O)Cn1cnc2sc(C)c(S(=O)(=O)N3CCC(C)CC3)c2c1=O (stereo not given)	-1.7%	-10.8%
C(=C\c1nnc(-c2cccs2)o1)/c1ccccc1	-21.7%	29.9%
CC(C)Sc1nnc(CNC(=O)C23CC4CC(CC(C4)C2)C3)n1C1CCCCC1	-0.9%	2.2%
Cc1ccc(Oc2nc3c(c(=O)n(Cc4ccccc4F)c(=O)n3C)n2C)cc1	-11.5%	6.0%
O=Cc1cn(CC(O)CN2CCCCC2)c2ccccc12 (stereo not given)	19.5%	-2.6%
COc1ccc(-c2[nH]ncc2CN2CCSCC2)c(OC)c1	-1.2%	0.5%
Cc1ccc(S(=O)(=O)NC(C)C(=O)Nc2ccccc2C(=O)N2CCCC2)cc1 (stereo not given)	2.5%	-0.2%
Cc1ccc(CNC(=O)/C=C/c2ccccc2Cl)cc1	5.0%	4.1%
Cc1nn(C)cc1CNCc1ccc(OCC(O)CN(C)Cc2ccccc2)cc1 (stereo not given)	-4.7%	-3.4%
COc1ccc2sc(N(CCN(C)C)C(=O)/C=C/c3cccs3)nc2c1	2.9%	-11.3%
CNc1ccccc1C(=O)OCC(=O)N(CCOC)c1c(N)n(CC(C)C)c(=O)[nH]c1=O	0.3%	?
O=C(Nc1nc2ccccc2c(=O)[nH]1)c1ccccc1SCc1ccccc1	-18.7%	-8.2%
CC(C)Cc1nc2sc3c(NCc4ccco4)ncnc3c2c2c1COC(C)(C)C2	-12.3%	7.7%
N/C(Cc1cccc2ccccc12)=N\OC(=O)COc1ccccc1	-1.7%	6.6%
Cn1c(=O)cc(OCC(=O)N2CCN(c3ccc(F)cc3)CC2)c2ccccc21	7.8%	/
Cc1ccc(NC(=O)CSc2nncn2-c2ccccn2)cc1Cl	-4.0%	1.4%
CN1C(=O)c2ccccc2N(C)C1c1ccccc1Cl (stereo not given)	3.9%	3.4%
CC1(c2ccccc2)NC(=O)N(CC(=O)Nc2cccc(/C=C/c3ccccn3)c2)C1=O (stereo not given)	-6.2%	6.5%
CN(c1ccc(C(=O)O)cc1)S(=O)(=O)c1ccc(Cl)cc1	1.2%	17.0%
Cc1cccc(N(C)S(=O)(=O)c2cc3[nH]c(=O)c(=O)[nH]c3cc2C)c1	8.0%	/
CCOc1ccc(-n2c(Cc3cc(=O)[nH]c(=O)[nH]3)nnc2SCc2cccnc2)cc1	/	5.5%
Cc1cc(=S)[nH]c2c(C)cccc12	0.5%	2.4%
Cc1ccc(C(=O)N2c3ccc(C)cc3C(C)(c3ccccc3)CC2(C)C)cc1 (stereo not given)	-19.8%	/
Cc1ccc(S(=O)(=O)N(C)C)cc1NC(=S)NCc1ccco1	2.6%	5.5%
COc1cccc(CNC(=O)C2CCCN(S(=O)(=O)c3ccc4c(ccn4C)c3)C2)c1OC (stereo not given)	16.5%	/
Cc1ccc2c(C)c(C(=O)N3CCCC(C(N)=O)C3)oc2c1C (stereo not given)	20.0%	2.7%
CCCCn1nc(C(=O)O)ccc1=O	-2.7%	10.7%
Cc1ccc(N(C(=O)c2ccco2)C2C=CS(=O)(=O)C2)cc1 (stereo not given)	12.8%	-6.6%

Molecules listed so far that contain an aryl thioether with sulfur outside any ring, in the order listed:
SMILES	FEN1 inhibitor	N370S GC
Cc1ccccc1N1C(=O)CC(Sc2nnc(-c3ccccc3)o2)C1=O (stereo not given)	-6.3%	6.6%
COc1cccc2c1Oc1nc(-c3ccccc3)nc(SCC(=O)Nc3ccccc3)c1C2	14.3%	/
CC(C)Sc1nnc(CNC(=O)C23CC4CC(CC(C4)C2)C3)n1C1CCCCC1	-0.9%	2.2%
O=C(Nc1nc2ccccc2c(=O)[nH]1)c1ccccc1SCc1ccccc1	-18.7%	-8.2%
Cc1ccc(NC(=O)CSc2nncn2-c2ccccn2)cc1Cl	-4.0%	1.4%
CCOc1ccc(-n2c(Cc3cc(=O)[nH]c(=O)[nH]3)nnc2SCc2cccnc2)cc1	/	5.5%

(listing goes on)
SMILES	FEN1 inhibitor	N370S GC
O=c1c2ccccc2nc(SCc2nnc(-c3ccccc3)o2)n1-c1ccccc1	-1.3%	-0.8%
CCOc1cc(C(=O)NCC(=O)N2CCC3(CC2)NCCc2[nH]cnc23)cc(OCC)c1OCC	0.8%	-13.8%
O=C(CCN1C(=O)/C(=C/c2ccccc2Cl)SC1=S)Nc1ccccn1	-1.2%	-6.7%
CC(C)(C)OC(=O)N/N=C/c1ccc(N2CCOCC2)s1	-13.9%	-5.7%
Cc1ccc(-n2c(=O)c3oc4ccccc4c3n(Cc3ccccc3F)c2=O)cc1C	3.9%	/
Cc1ccc(C)c(OCCC(=O)OCC(=O)NC(=O)NC2CCCC2)c1	-4.9%	0.2%
O=C(Cc1cn2ccsc2n1)Nc1nc2c(s1)CN(Cc1ccccc1)CC2	0.1%	0.3%
CC(=O)Nc1ccc(-c2cn3ccsc3n2)cc1	-5.1%	2.9%
O=C(N/C(=C\c1ccc(F)cc1)C(=O)N1CCCCCC1)c1ccccc1	-1.9%	1.9%
CCOC(=O)C1=C(COC(=O)c2ccc(Cl)cc2[N+](=O)[O-])NC(=O)NC1C (stereo not given)	-14.7%	-36.6%
CCOC(=O)c1ccc(NC(=O)COc2ccccc2CNC2CCCC2)cc1	-2.8%	-29.3%
O=C(NCc1ccco1)/C(=C\C=C\c1ccccc1)NC(=O)c1ccco1	-2.2%	-3.0%
CCOc1ccccc1CN1CCNC(=O)C1CC(=O)N(C)Cc1cnccn1 (stereo not given)	8.3%	1.6%
O=C(/C=C/c1ccc(Cl)cc1)N1CCOCC1	16.3%	-11.7%
CCc1cc2cc(OC)ccc2nc1SCC(=O)NNC(=O)c1ccco1	6.0%	-0.1%
CC1CCCC(NC(=O)CNC(=S)N(Cc2ccccc2)Cc2cccs2)C1C (stereo not given)	-15.4%	-15.0%
COc1ccc(S(=O)(=O)NCC2CCCN(C(=O)c3cccs3)C2)cc1 (stereo not given)	-3.2%	4.4%
CCN(CC)C(=O)CSc1ncnc2c1cnn2-c1ccccc1	0.6%	2.8%
COC(=O)CNC(=O)CSc1nc(N)cc(=O)[nH]1	-12.3%	-9.5%
O=C(COC(=O)c1ccc2c(c1)OCO2)Nc1ccccc1Cl	19.5%	/
Cn1c(=NC(=O)c2cnccn2)sc2ccccc21	-13.1%	-2.6%
CCOC(=O)N1CCC(NC2CCCCCCC2)CC1	1.0%	16.4%
Cc1oc2nc(SCC(=O)N3CCCCC3)nc(N)c2c1C	9.6%	3.4%
CC(O)c1cccc(NC(=O)CCC(=O)O)c1 (stereo not given)	-0.9%	-4.7%
CC(=O)N(C)c1ccc(OCC(O)CN(c2ccccc2C)S(=O)(=O)c2ccc(C)cc2)cc1 (stereo not given)	-0.4%	-16.7%
CCc1nc2ccccc2c(C(=O)OCC(=O)N(CC(C)C)c2c(N)n(Cc3ccccc3)c(=O)[nH]c2=O)c1C	3.5%	-27.9%
Nc1ncnc2c1nc(Br)n2[C@H]1O[C@H]2COP(=O)(O)O[C@H]2[C@@H]1O	/	-1.6%
CC(C)[C@H](NC(=O)OC(C)(C)C)c1nnc(SCC(=O)Nc2ccc(Br)cc2)o1	-6.3%	-16.0%
Cc1ccccc1C(=O)NC1CCN(Cc2nnnn2C(C)(C)C)CC1	-9.7%	1.3%
CC(C)CCNC(=O)NC(=O)COC(=O)C1CCN(S(=O)(=O)c2ccccc2F)CC1	-13.0%	-12.0%
CCc1noc(C)c1C(=O)Nc1nc(-c2cc(C)ccc2C)c(C)s1	-5.3%	-0.6%
Cc1ncc(CN2CCC(N3CCC(C(=O)N4CCCC4)CC3)CC2)s1	-1.1%	-3.9%
CCCCOc1cccc(/C=C(\C#N)C(=O)NC2CC2)c1	-12.8%	0.3%
O=C(Nc1ncn[nH]1)c1ccccc1Br	0.4%	2.4%
Cc1cc2cc(CNC(=O)c3cccc([N+](=O)[O-])c3)ccc2n1C	-7.9%	-5.7%
CC(C)OC(=O)Cn1c(-c2ccccc2)c(-c2ccccc2)nnc1=O	11.3%	-0.3%
CCOc1ccc(C(=O)Nc2nnc(NC(=S)Nc3ccccc3)s2)cc1	6.6%	8.6%
O=C(O/N=C/c1cccc([N+](=O)[O-])c1)C1CC1	-0.5%	1.5%
O=C(Oc1cccc(NC(=O)c2ccco2)c1)c1ccc(Br)c(S(=O)(=O)N2CCCCC2)c1	-4.7%	-3.1%
CC[C@H](C)[C@H](NC(N)=O)C(=O)NCCc1ccc(OC)c(OC)c1	2.0%	2.9%
CCCNCc1cc(Br)ccc1OCC(=O)NCCc1ccccc1	2.5%	-7.4%
COc1ccc(CCNC(=O)c2c(C)oc3nc(C)nc(N4CCOCC4)c23)cc1OC	1.3%	/
COc1ccccc1C(C(=O)NCc1ccccc1)N(C(=O)c1csnn1)C1CC1 (stereo not given)	-11.7%	1.3%
O=S(=O)(NC1=NCCCCC1)c1ccc(Cl)cc1	-2.6%	-13.2%
CCC(C)(C)NC(=S)Nc1ccc(-c2nc3ccc(C)cc3s2)cc1	3.1%	7.9%
COc1ccc(C(=O)NNC(=O)CSc2nnc(C(C)C)n2C)cc1	0.1%	0.2%
Cc1cc(C)cc(NC(=O)C2CCN(S(=O)(=O)c3cn(C)cn3)CC2)c1	4.7%	/
COc1cc2c(cc1OC)C(Cc1ccc(O)cc1)NCC2 (stereo not given)	17.4%	-1.9%
CC1CCN(C(=O)c2ccc(NS(=O)(=O)c3cccs3)cc2)CC1	12.6%	-9.1%
COc1ccc(S(=O)(=O)N(C)C[C@H]2Oc3c(NC(=O)NC(C)C)cccc3C(=O)N([C@H](C)CO)C[C@@H]2C)cc1	9.2%	/
CCOc1ccc(S(=O)(=O)N2CCOCC2)cc1NC(=O)CN1C(=O)NC2(CCCCC2)C1=O	15.7%	/

Some of the compounds tested, and most or all hits are left out here.
